# High-throughput results as filed in PubChem BioAssay.
# LYP inhibition: inhibitors of LYP phosphatase, biochemical, fluorescence intensity, uHTS (AID 1779). hit rate 0.054% among 290,000. one-dose inhibition, % at 11.5 µM; IC50 in µM for titrated hits. recombinant LYP phosphatase, fluorescence intensity; higher % means a stronger effect; in the data active means inhibition above about 50%;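 further: plate controls were vehicle with enzyme for no effect and no enzyme for full effect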
# XIAP displacement: XIAP antagonists, biochemical, IAP family, fluorescence polarization (AID 1018). XIAP BIR domain, fluorescence polarization peptide displacement; higher % means a stronger effect. hit rate 0.007% among 200,000. displacement, % at 20 µM; hits with a dose series show IC50 in µM; in the data active means displacement above about 50%; further: a part of the inactive calls stands beside numbers as strong as those of hits
# TNAP activators: stimulation of alkaline phosphatase TNAP activity – biochemical, luminescent, no phosphate acceptor, uHTS, primary screen (AID 1001) | purified TNAP, luminescent activation assay, no phosphate acceptor; higher activation fold means a stronger effect | hit rate 0.03% among 200,000 | activation fold at 20 µM, or EC50 in µM where a hit was titrated; in the data active means activation fold from about 3, or a potency from the dose series; inactive means the rest, 99 in 100 with activation fold below about 1.6; further: many of its hits are not listed in these tables
# KOR agonists: KOR agonists, beta-arrestin recruitment, primary screen, cell-based, luminescence, uHTS (AID 1777); KOR beta-arrestin recruitment, luminescence; higher % means a stronger effect; one-dose activation, % at 10 µM; EC50 in µM for titrated hits; hit rate 0.02% among 280,000; in the data active means activation above about 50%, passing the limit was not always enough; further: a part of the inactive calls stands beside numbers as strong as those of hits
# An asterisk follows results filed as active. An excerpt; the hit share may differ from the screen's.
no.	KOR agonists	LYP inhibition	XIAP displacement	TNAP activators	canonical_smiles
1	15%	-4%	-0.4%	1.1	CCOc1ccc(NC(=O)CSc2nnc(CCNC(=O)c3ccc(OC)cc3)n2CC)cc1
2	0.7%	-10%	-6.9%	1.1	COc1cccc(OC)c1C(=O)Nc1ccc2c3c(cccc13)CC2
3	-1.3%	-8%	-5.2%	1	CC1CCN(CCCNC(=O)c2n[nH]c(=O)c3ccccc23)CC1
4	2.0%	-5%	-5.4%	1.1	CC(O)CNCc1ccc(-c2ccccc2)cc1 (stereo not given)
5	-2.3%	-5%	-7.5%	0.9	O=S(=O)(NCCNS(=O)(=O)c1cccs1)c1cccs1
6	4.4%	-3%	0.6%	1.9	C=CCNC(=S)NNC(=O)c1ccc2c(c1)OCO2
7	4.8%	4%	-3.0%	1.1	CCOc1ccc(-n2c(N)c(C(=O)NCC3CCCO3)sc2=S)cc1 (stereo not given)
8	-4.0%	-12%	-5.5%	1.1	Cc1ccc2cc(C(=O)O)c(C)nc2c1
9	0.6%	-8%	-5.9%	1.1	CCCCNC(=O)NS(=O)(=O)c1cnccc1Sc1ccc(Cl)cc1
10	-1.8%	-1%	-4.8%	1	CCCN(CCC)C(=O)CSc1nc2ccccc2c(=O)n1CC1COc2ccccc2O1 (stereo not given)
11	-0.7%	0%	-3.3%	1	Nc1nc(Br)c2c(F)cccc2c1-c1ccccc1
12	-6.9%	0%	-2.7%	1.1	CN(C)C(CNc1nnnn1-c1ccccc1)c1ccco1 (stereo not given)
13	1.3%	5%	-19%	1.8	S=C(NCCC(c1ccccc1)c1ccccc1)Nc1ccc(Cl)cc1
14	3.0%	0%	-2.7%	1.1	CC(C)C(NS(=O)(=O)c1cccs1)C(=O)NCCN1CCN(c2ccccc2)CC1 (stereo not given)
15	5.6%	3%	-3.5%	0.9	Cc1ccc(C)c(C(=O)COC(=O)c2ccccc2N2C(=O)C3C4CCC(C4)C3C2=O)c1 (stereo not given)
16	-2.6%	2%	-1.4%	0.9	NNc1nc(-c2ccccc2)cc(-c2ccccc2O)n1
17	2.0%	-2%	2.2%	1.1	COC(=O)C1=C(CSCc2ccccc2)NC(=O)NC1c1cc(C)ccc1C (stereo not given)
18	-0.4%	-8%	-3.0%	1.1	COC(=O)C1=C(NC(=O)c2ccc(C)cc2)CCS1
19	0.6%	-9%	-2.3%	1	CCc1c(C)nc2c(C#N)c(C)[nH]n2c1=O
20	14%	-7%	-5.6%	1.1	O=C(OCc1ccccc1)c1cccc(-c2nnc(-c3ccccc3)o2)c1
21	-0.4%	-10%	-3.4%	1	CCCc1nc(SCC(=O)Nc2nc3c(s2)CCCC3)c2ccccc2n1
22	7.7%	-4%	-2.8%	1.1	CCOc1c2ccc(C(=O)NCc3ccc(OC)cc3)cc2nn1CCOC
23	4.2%	-7%	-2.6%	1.1	COc1ccc(Cl)cc1S(=O)(=O)N1CCN(C(=O)c2cc(OC)c(OC)c(OC)c2)CC1
24	6.3%	-3%	5.4%	1.1	O=C(CSCc1ccc(Cl)cc1)Nc1ccc2c(c1)OCCO2
25	-1.0%	14%	-6.8%	0.8	N#Cc1c(N2CCCC(O)C2)nc(N)c2c(N)nc3c(c12)CC(=O)N3C12CC3CC(CC(C3)C1)C2 (stereo not given)
26	0.8%	-3%	-3.4%	1	CCOC(=O)N1CCN(Cc2nc(-c3ccc(Cl)cc3)no2)CC1
27	-1.1%	-7%	-6.3%	1.1	Cn1nnnc1SCC(=O)Nc1ccccc1[N+](=O)[O-]
28	2.7%	3%	-4.5%	1	CCN(CC)c1cc(C)c2cc(NC(=O)c3ccc(Br)o3)ccc2n1
29	-3.3%	-5%	-8.4%	1	CN(C)S(=O)(=O)Oc1ccsc1C(=O)Nc1ccc(Cl)cc1
30	5.2%	-7%	-3.1%	1	COC(=O)c1[nH]c2ccc(C)cc2c1NC(=O)CN1CCN(Cc2ccccc2)CC1

# From compound 7 as far as 9, as listed above:
no.	KOR agonists	LYP inhibition	XIAP displacement	TNAP activators	canonical_smiles
7	4.8%	4%	-3.0%	1.1	CCOc1ccc(-n2c(N)c(C(=O)NCC3CCCO3)sc2=S)cc1 (stereo not given)
8	-4.0%	-12%	-5.5%	1.1	Cc1ccc2cc(C(=O)O)c(C)nc2c1
9	0.6%	-8%	-5.9%	1.1	CCCCNC(=O)NS(=O)(=O)c1cnccc1Sc1ccc(Cl)cc1

# Next part:
no.	KOR agonists	LYP inhibition	XIAP displacement	TNAP activators	canonical_smiles
31	7.3%	-4%	-4.5%	1	CC(=O)c1cn(CC(=O)Nc2ccccc2C)c2ccccc12
32	0.8%	-6%	-3.4%	1.2	Cn1cccc1CNC(=O)Nc1ccc(Cl)c(Cl)c1
33	3.8%	-2%	-2.6%	1.1	CC1(C)OC(=O)N(c2ccccn2)C1(C)O (stereo not given)
34	1.9%	4%	-8.8%	1.1	Cc1ccc(S(=O)(=O)N(C)c2cc(S(=O)(=O)N3CCC(C)CC3)c(C)cc2C)cc1
35	7.5%	-3%	0.2%	1	COc1ccc(Cl)cc1NC(=O)C1CCCN(c2cc(C)nc3ncnn23)C1 (stereo not given)
36	-1.8%	-5%	-2.5%	1.1	Cc1cc(NC(=O)CSCCO)no1
37	4.4%	-5%	-3.1%	1.1	Cc1c(NC(=O)OCCNC(=O)COc2c(Cl)cccc2Cl)sc(=S)n1C
38	1.3%	21%	-13%	1	CCOC(=O)c1c(-c2ccc(-c3ccccc3)cc2)csc1NC(=O)C1C2CCC(O2)C1C(=O)O (stereo not given)
39	-0.2%	-7%	-2.4%	1.1	COc1ccc(/C=C2\N=C(SC)SC2=O)cc1OC
40	18%	4%	-2.2%	1	CCOc1ccc(N2CC(=O)N(c3ccc(OCC)cc3)CC2=O)cc1
41	0.7%	8%	1.4%	1	O=C(Nc1ncc2c(n1)-c1ccccc1CC2)c1ccc(Cl)cc1
42	8.0%	-8%	-4.6%	1.1	CCOc1c2ccc(C(=O)NCc3ccc(C)cc3)cc2nn1CCOC
43	0.8%	5%	-5.5%	1.1	COc1ccc(S(=O)(=O)Nc2cc3c4c(oc3c3ccccc23)CC(C)(C)CC4=O)cc1
44	-0.9%	-1%	-5.9%	1	COc1ccc(S(=O)(=O)N2c3cc(C)ccc3OCC2C(C)(C)C)cc1 (stereo not given)
45	2.9%	-2%	-1.5%	1	COc1ccc(CCNc2nc(-c3ccco3)cc(C(F)(F)F)n2)cc1OC
46	2.9%	4%	-3.7%	1	COc1ccc(/C=N/NC(=O)c2sccc2OCc2ccc(F)cc2)cc1OC
47	-3.2%	-3%	-2.6%	1.1	Cc1cc(C)c(S(=O)(=O)Nc2c(C)[nH]c(=O)[nH]c2=O)c(C)c1
48	1.2%	10%	-0.6%	1.1	CCCCCC1CC1C(=O)N/N=C/c1ccc(N(C)C)cc1 (stereo not given)
49	3.8%	6%	-3.7%	1.1	COC(=O)CSc1nc(NC#N)nc(NC(C)C)n1
50	-0.2%	-4%	-4.5%	1	CCOC(=O)C1CCN(C(=O)C2CCN(c3nc4ccc(OC)cc4s3)CC2)CC1
51	1.9%	4%	-5.0%	1.1	O=C(Nc1cccc(Cl)c1N1CCCC1)c1cccc(-c2cc3ccccc3oc2=O)c1
52	3.2%	-3%	-2.9%	1.1	COC(=O)c1nnn(-c2nonc2N)c1CSc1nc2ccccc2o1
53	-7.8%	-1%	-3.2%	0.9	O=C1Nc2ccc([N+](=O)[O-])cc2C1(O)N1CCCCCC1 (stereo not given)
54	-0.2%	-9%	-5.4%	1.1	Cn1c(SCC(=O)N2CCCC2)nnc1-c1ccc(S(=O)(=O)N2CCCC2)cc1
55	5.6%	-4%	-10%	1	Cc1ccc(S(=O)(=O)Nc2ccc(=O)n(Cc3ccc(Cl)c(Cl)c3)c2)cc1
56	2.8%	-6%	-2.1%	1.1	O=C(CCCCCn1c(=S)[nH]c2ccccc2c1=O)NCc1ccc2c(c1)OCO2
57	-1.9%	-7%	-2.1%	1.1	Cc1csc(=S)n1-c1ccccc1
58	5.9%	-10%	-8.3%	1.1	CCCn1nc2cc(C(=O)NCc3ccccc3)ccc2c1OCC
59	-1.7%	-2%	-1.0%	1.1	CCOc1ccc2nc(NC(=O)c3ccc(S(=O)(=O)N4CCOCC4)cc3)sc2c1
60	-0.9%	3%	-4.5%	1.1	CCCc1nc(SCC(=O)Nc2nnc(CC)s2)c2c(C)c(C)sc2n1

# Copied from the list:
# XIAP displacement with O=C(Nc1ncc2c(n1)-c1ccccc1CC2)c1ccc(Cl)cc1 reads 1.4%
# KOR agonists with COC(=O)C1=C(NC(=O)c2ccc(C)cc2)CCS1 reads -0.4%
# XIAP displacement with Nc1nc(Br)c2c(F)cccc2c1-c1ccccc1 reads -3.3%
# KOR agonists with O=C(OCc1ccccc1)c1cccc(-c2nnc(-c3ccccc3)o2)c1 reads 14%
# LYP inhibition with COc1ccc(S(=O)(=O)N2c3cc(C)ccc3OCC2C(C)(C)C)cc1 (stereo not given) reads -1%

# Quoted at random: four compounds from above, in no set order.
no.	KOR agonists	LYP inhibition	XIAP displacement	TNAP activators	canonical_smiles
33	3.8%	-2%	-2.6%	1.1	CC1(C)OC(=O)N(c2ccccn2)C1(C)O (stereo not given)
42	8.0%	-8%	-4.6%	1.1	CCOc1c2ccc(C(=O)NCc3ccc(C)cc3)cc2nn1CCOC
40	18%	4%	-2.2%	1	CCOc1ccc(N2CC(=O)N(c3ccc(OCC)cc3)CC2=O)cc1
34	1.9%	4%	-8.8%	1.1	Cc1ccc(S(=O)(=O)N(C)c2cc(S(=O)(=O)N3CCC(C)CC3)c(C)cc2C)cc1

# Going on with the list:
no.	KOR agonists	LYP inhibition	XIAP displacement	TNAP activators	canonical_smiles
61	4.5%	-2%	-7.8%	1.1	O=C(O)c1ccc(S(=O)(=O)NC2CCCc3ccccc32)cc1 (stereo not given)
62	3.6%	0%	-3.9%	1.1	O=C(Nc1ccc(F)cc1)c1cnc(-c2ccccc2)nc1-c1ccccc1
63	1.5%	-5%	-3.0%	1.1	Cc1ccccc1C(=O)N/C(=C/c1ccc(-c2cccnc2Cl)o1)C(=O)NCCCN1CCN(C)CC1
64	2.1%	-9%	-3.3%	1.1	CCCCCNCc1cccc(Br)c1
65	0.9%	0%	0.9%	1.1	Cc1c(NC(=S)NC(=O)C(c2ccccc2)c2ccccc2)cccc1C(=O)O
66	0.0%	3%	-2.4%	1.1	COc1ccc(NC(=O)Cn2nnc(C(N)=O)c2N)c(OC)c1
67	-0.6%	-4%	-7.9%	1.1	CC(C)(C)C(=O)Nc1ccc2c(c1)-c1cc(NC(=O)C(C)(C)C)ccc1C2
68	3.8%	-6%	-0.8%	1.1	CC(=O)NS(=O)(=O)c1ccc(NC(=O)NC2CCCCC2)cc1
69	0.9%	-1%	-2.6%	1	O=C(CSc1nnc(Cc2cc(=O)[nH]c(=O)[nH]2)n1-c1ccccc1)N1CCCC1
70	17%	-6%	-3.0%	1	CC(C)(C)c1nc2ccccc2c2nnc(SCC(=O)Nc3nc4ccccc4s3)n12
71	0.4%	-4%	-3.3%	1.1	COc1cc(/C=C(/C#N)C(=O)NCCc2c[nH]c3ccccc23)ccc1OCc1ccccc1F
72	0.8%	-7%	-18%	1	Cc1cccc(NC(=O)c2ccc(Cn3cc(C(F)(F)F)ccc3=O)cc2)c1
73	3.9%	7%	-18%	1	NC(=O)[C@H](Cc1cc2ccccc2s1)NC(=O)[C@@H]1CC2(CC(c3cccc(NC(=O)[C@@H]4CCC(=O)N4)c3)=NO2)CN1C(=O)/C=C/c1c(F)cccc1Cl (stereo not given in full)
74	4.4%	1%	-5.0%	1	S=c1nc(-c2ccccc2)[nH]n1-c1ccccc1
75	-9.0%	-8%	-5.0%	1.1	CCNC(=O)C1CC(=O)N(c2ccc(OCC)cc2)C1 (stereo not given)
76	-1.9%	-2%	3.7%	1.1	Cc1ccc(C(=O)N2c3ccccc3N(Cc3ccccc3)C(=O)C2(C)C)cc1
77	1.1%	10%	0.3%	1.1	Cc1ccc(-c2cc(C(=O)N3N=C(C(F)F)CC3(O)C(F)F)c3ccccc3n2)cc1C (stereo not given)
78	-2.8%	3%	-3.4%	1.1	Cc1nc2ccccc2nc1SCC(=O)N1CCC(C)CC1
79	14%	-3%	-0.9%	1.1	CCOc1cc(/C=N/NC(=O)Cc2ccc(C(F)(F)F)cc2[N+](=O)[O-])c(Br)cc1OC

# 7 compounds already listed, arranged by molar mass, highest first:
no.	KOR agonists	LYP inhibition	XIAP displacement	TNAP activators	canonical_smiles
70	17%	-6%	-3.0%	1	CC(C)(C)c1nc2ccccc2c2nnc(SCC(=O)Nc3nc4ccccc4s3)n12
76	-1.9%	-2%	3.7%	1.1	Cc1ccc(C(=O)N2c3ccccc3N(Cc3ccccc3)C(=O)C2(C)C)cc1
62	3.6%	0%	-3.9%	1.1	O=C(Nc1ccc(F)cc1)c1cnc(-c2ccccc2)nc1-c1ccccc1
67	-0.6%	-4%	-7.9%	1.1	CC(C)(C)C(=O)Nc1ccc2c(c1)-c1cc(NC(=O)C(C)(C)C)ccc1C2
68	3.8%	-6%	-0.8%	1.1	CC(=O)NS(=O)(=O)c1ccc(NC(=O)NC2CCCCC2)cc1
66	0.0%	3%	-2.4%	1.1	COc1ccc(NC(=O)Cn2nnc(C(N)=O)c2N)c(OC)c1
64	2.1%	-9%	-3.3%	1.1	CCCCCNCc1cccc(Br)c1
